Compound activity from PubChem BioAssay.
CHT PAM: allosteric activators of human choline transporter CHT; CHT-expressing cells, membrane potential dye, choline EC20; stronger effect = higher value; LV-AA mutant CHT in HEK293 cells; B-score at 10 µM; hit rate 0.49% among 310,000; AID 488977;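 active = initial fluorescence not abnormally high and integrated response B-score, plate-corrected, over 3 SD above library mean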
Target sequence (Q9GZV3 whole entry, looked up): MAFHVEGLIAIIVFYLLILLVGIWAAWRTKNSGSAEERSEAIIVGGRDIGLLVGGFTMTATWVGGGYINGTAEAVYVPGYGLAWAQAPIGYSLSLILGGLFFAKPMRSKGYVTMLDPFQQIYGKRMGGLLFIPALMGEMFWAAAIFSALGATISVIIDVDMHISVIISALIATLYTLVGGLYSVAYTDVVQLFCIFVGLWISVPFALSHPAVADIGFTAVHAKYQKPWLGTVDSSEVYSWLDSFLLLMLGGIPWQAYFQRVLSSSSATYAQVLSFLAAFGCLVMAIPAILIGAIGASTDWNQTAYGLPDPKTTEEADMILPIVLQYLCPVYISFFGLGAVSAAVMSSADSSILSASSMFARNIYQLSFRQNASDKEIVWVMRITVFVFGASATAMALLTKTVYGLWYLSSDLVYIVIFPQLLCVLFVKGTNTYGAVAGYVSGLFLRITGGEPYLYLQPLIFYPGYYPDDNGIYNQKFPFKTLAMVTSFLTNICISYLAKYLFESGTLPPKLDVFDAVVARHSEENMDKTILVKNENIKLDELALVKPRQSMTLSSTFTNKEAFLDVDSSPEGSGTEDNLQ
Calls only; i = inactive. Only part of the results is shown; most or all hits stand in other tables.

Sample of the layout (3 entries):
SMILES	CHT PAM
CCOC(=O)N1CCN(C(=O)CSc2nc3c(c(=O)n2-c2ccccc2OC)SCC3)CC1	i
CCC(C)NC(=O)CN(c1cc(C)cc(C)c1)S(=O)(=O)c1c(C)[nH]c(=O)[nH]c1=O (centres undefined)	i
Cc1ccc(OCCC(=O)N(Cc2ccccc2)c2c(N)n(Cc3ccccc3)c(=O)[nH]c2=O)cc1	i

All compounds of this part, repeating the preview:
SMILES	CHT PAM
CCOC(=O)N1CCN(C(=O)CSc2nc3c(c(=O)n2-c2ccccc2OC)SCC3)CC1	i
CCC(C)NC(=O)CN(c1cc(C)cc(C)c1)S(=O)(=O)c1c(C)[nH]c(=O)[nH]c1=O (centres undefined)	i
Cc1ccc(OCCC(=O)N(Cc2ccccc2)c2c(N)n(Cc3ccccc3)c(=O)[nH]c2=O)cc1	i
CCCCCOP(=O)(OCCCCC)C1(NS(=O)(=O)c2ccccc2)C=CC(=O)c2ccccc21 (centres undefined)	i
COc1cccc(C(=O)Nc2ccc(S(=O)(=O)N3CCCCC3)cc2)c1OC	i
CN(c1ccccc1C(=O)NC1CC2CCC1C2)S(=O)(=O)c1ccccc1 (centres undefined)	i
CCOC(=O)c1c(Nc2nc(C)c(C(=O)NC)s2)sc(C)c1C	i
COc1cc(C(C(=O)NCC2CCCO2)N(C(=O)Cn2nnc3ccccc32)c2ccc(OC)c(OC)c2)ccc1O (centres undefined)	i
CC(Oc1ccc(-c2ccccc2)c(F)c1)c1ccn(S(=O)(=O)c2ccc(Br)cc2)n1 (centres undefined)	i
O=c1c2cc(N3CCOCC3)ccc2[nH]c(=S)n1CC1CCCO1 (centres undefined)	i
CC(Sc1nc2cc([N+](=O)[O-])ccc2n1-c1ccc(F)cc1)C(=O)NCc1ccc2c(c1)OCO2 (centres undefined)	i
N#Cc1ccccc1NC(=O)COc1c(Br)cc(Br)c2cccnc12	i
Cc1cc(Cn2nc(C(=O)NCC3CC3)cc2-c2ccccc2)on1	i
COc1cccc(OCCn2cccc2/C=C2/C(=N)N3OC(C)=CC3=NC2=O)c1	i
Cc1ccc(CCNC(=O)C2CCC(=O)N2C2CCCC2)cc1 (centres undefined)	i
NC(=O)NC(=O)COC(=O)c1sc2ccccc2c1Cl	i
Cc1cccc(N(C)S(=O)(=O)c2ccc3c(c2)NC(=O)CC(=O)N3)c1	i
O=C(O)/C=C/C(=O)NCc1csc2ccccc12	i
Cc1nc(N2CCOCC2)c2c(C)c(C(=O)Nc3ccc(C(F)(F)F)cc3)sc2n1	i
O=C(Nc1ccccc1F)NC1CCCc2ccccc21 (centres undefined)	i
N#Cc1ccc(CN2CCN(C(=O)c3ccccc3)CC2)c(Cl)c1	i
NC(=O)COC(=O)CCCc1nc2ccccc2s1	i
O=C(NCc1cccnc1)c1ccc(CS(=O)(=O)Cc2ccc(Cl)cc2)o1	i
COc1cc(NC(=O)Cc2ccccc2)ccc1NC(=O)c1ccccc1	i
COc1ccc(-n2nc(C(=O)NCC(=O)Nc3ccccn3)c3ccccc3c2=O)cc1	i
CCCCN(C1CCS(=O)(=O)C1)S(=O)(=O)c1ccc(OC)c(OC)c1 (centres undefined)	i
Cc1ccc(OCC(=O)Nc2cc(-c3nn4c(C)nnc4s3)ccc2C)cc1	i
CCCNC(=O)c1c(CSc2ccccc2)noc1C(=O)NCc1ccccc1	i
CCOC(=O)C(=O)Nc1nnc(Cc2ccc(OC)c(OC)c2)s1	i
O=C(O)c1cccc(S(=O)(=O)Nc2ccccc2N2CCOCC2)c1	i
COC(=O)C(Cc1ccc(O)cc1)NC(=O)NC12CC3CC(CC(C3)C1)C2 (centres undefined)	i
CCC(=O)Nc1ccc(C(=O)OCC(=O)c2ccc(C)c([N+](=O)[O-])c2)cc1	i
O=C(Cc1ccccc1[N+](=O)[O-])NC1CC1	i
Cc1ccc(NS(=O)(=O)c2c(C)[nH]c(C)c2C(=O)N2CCCC2)cc1	i
CCCCc1nnc(NC(=O)CCS(=O)(=O)Cc2ccccc2)s1	i
Cc1cccc(OCC(=O)N/N=C/c2ccc3c(c2)OCO3)c1	i
COc1ccc(CNC(=O)[C@@H](NC(=O)C2CCN(C(=O)[C@@H](N)CC(C)C)CC2)C(C)C)cc1	i
CC(=O)Nc1ccc(OCc2ccc(S(=O)(=O)Cc3ccccc3)cc2)cc1	i
C/C=C/c1ccc(OCCCN2C(=O)NC(C)(C)C2=O)c(OC)c1	i
COC(=O)C1=NN[C@H](C(=O)OC)[C@H]1c1ccccc1	i
Cc1ccc(CSCC(=O)NCCCN2CCOCC2)cc1	i
Fc1ccc(NC(=S)NC2CC3CCC(C2)N3Cc2ccco2)cc1 (centres undefined)	i
Cc1noc(C)c1S(=O)(=O)N1CCC(C(=O)N2CCN(c3ccc(F)cc3)CC2)CC1	i
COc1cc(OC)cc(-c2nc3nc(C)c(CCC(=O)NCc4ccco4)c(C)n3n2)c1	i
CC(C)c1ccc(Nc2nnc(SCC(=O)c3nnc(-c4ccccc4)o3)s2)cc1	i
Cc1ccc(C2=NN(C(=O)CN3C(=O)c4ccccc4S3(=O)=O)C(c3ccco3)C2)cc1 (centres undefined)	i
COc1ccc(C)cc1NC(=O)CCc1c(C)nn(-c2ccc(N3CCCCC3)nn2)c1C	i
CCCn1nnnc1SCC(=O)Nc1nnc(CC)s1	i
O=C(N/C(=C/c1cccc([N+](=O)[O-])c1)C(=O)N1CCCCC1)c1cccs1	i
O=C(c1ccco1)N1CCN(C(=S)Nc2ccc(F)cc2)CC1	i
O=C(Cn1ccsc1=NC(=O)c1ccco1)c1ccccc1	i
Cc1ccc(CNCC2CCCO2)o1 (centres undefined)	i
CC1CCCC(C)N1/N=C/c1ccc(C#N)cc1 (centres undefined)	i
CCOC(=O)Cc1ccc(NS(=O)(=O)c2ccc(SC)cc2)cc1	i
CCCCN(Cc1ccco1)S(=O)(=O)c1ccc(-c2ccc(=O)[nH]n2)s1	i
CCOc1cccc2c1OC1(C)CC2NC(=O)N1c1cccc(C(=O)N2CCN(c3ccccn3)CC2)c1 (centres undefined)	i
Cc1csc(NC(=O)C(NS(=O)(=O)c2ccc(Br)s2)c2ccccc2)n1 (centres undefined)	i
CNC(=S)N(CCCn1ccnc1)Cc1c(F)cccc1Cl	i
S=C(NCCc1ccccc1)N1CCCCC1	i
CC(C)c1ccc(O)c(C(=O)c2cnn(-c3ccccc3)c2)c1	i
Remaining list, next part.
SMILES	CHT PAM
COc1ccccc1Nc1nc(-c2c(C)[nH]c3ccccc23)cs1	i
Cn1nnnc1SCC(=O)N1c2ccccc2Sc2ccc(Cl)cc21	i
COc1ccc(/C=C/C(=O)NCCNC(=O)c2ccccc2)cc1OC	i
Cn1nc(-c2ccccc2)c(C(=O)NCC(=O)O)c1Cl	i
Cc1onc(-c2c(F)cccc2Cl)c1C(=O)Nc1cccc(Cn2cccn2)c1	i
Cc1ccccc1Cn1nc(C)c(NC(=O)c2cc(CC(C)C)on2)c1C	i
CCN1CCN(CCC(=O)Nc2cc(C)ccc2C)CC1	i
Cc1ccc(Cl)c(OCC(=O)Nc2ccc(S(=O)(=O)NC3=NCCCCC3)cc2)c1	i
CC(C)Sc1nc2ccccc2[nH]1	i
CCOC(=O)CSc1nnc(-c2cccc(Cl)c2)n1CC	i
CCC(=O)NNc1ncnc2c1cnn2-c1ccccc1	i
COc1ccc(C2Nc3ccccc3C(=O)N2NS(=O)(=O)c2ccccc2)c(OC)c1 (centres undefined)	i

3 entries picked at random from those above:
SMILES	CHT PAM
Cn1nc(-c2ccccc2)c(C(=O)NCC(=O)O)c1Cl	i
Cn1nnnc1SCC(=O)N1c2ccccc2Sc2ccc(Cl)cc21	i
COc1ccc(/C=C/C(=O)NCCNC(=O)c2ccccc2)cc1OC	i

More records
SMILES	CHT PAM
CC(=O)N1CCc2[nH]c3ccc(C)cc3c2C1	i
CCN(CC)CCCNC(=O)c1cn(CC(C)C)c(=O)c2c1c1ccccc1n2C	i
CCN(CC)S(=O)(=O)c1ccc(NC(=O)c2ccccn2)cc1	i
Cc1onc(-c2ccccc2Cl)c1C(=O)Nc1ccc(-c2nnc3n2CCCCC3)cc1	i
CN(C)c1ccc(/C=N/c2cc(-c3ccccc3)nn2-c2ccccc2)cc1	i
C=CCNc1nc(N2CCCCC2)c(C#N)c2c1CN(Cc1ccccc1)CC2	i
CSc1cccc(NC(=O)C(C)NS(=O)(=O)c2ccc(F)cc2)c1 (centres undefined)	i
Cc1ccc(NC(=O)c2ccc3nc[nH]c3c2)cc1C	i
CC(=O)OCc1c(C)cc(C)c(/C=C(/C#N)C(N)=O)c1C	i
CC(C)N=C1CC(C)(C)CC(=O)/C1=C(/O)CCCN1C(=O)c2ccccc2C1=O	i
CC(NC(=O)Cn1c(=O)oc2cc(S(=O)(=O)N3CCCC3)ccc21)c1ccccc1 (centres undefined)	i
COc1ccc(-c2nc3n(c(=O)c2C#N)CCS3)cc1OC	i
CC(=O)N1CCOc2ccc(S(=O)(=O)N3CCC(C(=O)Nc4ccc(C)c(C)c4)CC3)cc21	i
COC(=O)c1c(NC(C)=O)sc2c1CCCC2	i
COC(=O)c1cc(Nc2cc(C)nc3ncnn23)cc(C(=O)OC)c1	i
Cc1ccc(CCNC(=O)C2CCC(=O)N2C(C)C)cc1 (centres undefined)	i
COc1ccc(CCC(=O)Nc2ccc(S(=O)(=O)N3CCOCC3)cc2)cc1	i
O=C(C1CCC(Cn2c(=S)[nH]c3ccccc3c2=O)CC1)N1CCN(c2ccccn2)CC1 (centres undefined)	i
CCNC(=O)/C=C/c1ccccc1[N+](=O)[O-]	i
O=[N+]([O-])c1ccc(N2CCN(c3ccc(O)cc3)CC2)c(Cl)c1	i
CSC[C@@H]1NC(=S)N(c2ccc(C)cc2)C1=O	i
CCCN(S(=O)(=O)c1ccc(OCC)cc1)S(=O)(=O)c1cccs1	i
Cc1ccc(S(=O)(=O)N(C)CCCC(=O)NCc2ccc3c(c2)OCO3)cc1	i
CCSc1nnc(Cc2cc(=O)[nH]c(=O)[nH]2)n1-c1cccc(C)c1	i
CCOC(=O)C(NC(=O)c1ccc(OC)cc1)(N1CCCC1=O)C(F)(F)F (centres undefined)	i
COc1ccc(CN2C(=O)/C(=C/c3ccncc3)SC2=S)cc1	i
Cc1ccc(CCNC(=O)NC(C)(C)C)cc1	i
Cc1ccc2[nH]c(=O)c(CN(C(=O)c3cccs3)c3ccccc3)cc2c1	i
O=C(NNc1cc(Cl)ccc1Cl)c1cccnc1Cl	i
COc1ccc(NC(=O)CSc2nnc3ccc(-c4ccccn4)nn23)c(OC)c1	i
CCN(CC)C(=O)C(=O)N/N=C/c1ccc(Br)cc1	i
COCCNC(=O)CN1CCCCCC1	i
CC1=[N+](C)N(c2ccccc2)C(=O)C1N=C/C=C/c1ccccc1 (centres undefined)	i
O=C(NCCOc1ccc(F)cc1)C1CCN(S(=O)(=O)c2ccccc2)CC1	i
CCOc1ccccc1NS(=O)(=O)c1ccc(-n2cccn2)cc1	i
CCn1c(C)nc([N+](=O)[O-])c1C(=O)O	i

Shown with bars between the fields: part of the list above
mol | CHT PAM
COc1ccc(NC(=O)CSc2nnc3ccc(-c4ccccn4)nn23)c(OC)c1 | i
CCN(CC)C(=O)C(=O)N/N=C/c1ccc(Br)cc1 | i
COCCNC(=O)CN1CCCCCC1 | i
CC1=[N+](C)N(c2ccccc2)C(=O)C1N=C/C=C/c1ccccc1 (centres undefined) | i
O=C(NCCOc1ccc(F)cc1)C1CCN(S(=O)(=O)c2ccccc2)CC1 | i

New compounds follow:
SMILES	CHT PAM
CNS(=O)(=O)c1cccc(C(=O)NC2CCCc3ccccc32)c1 (centres undefined)	i
CC1CCN(Cc2ccc(-c3nnn(CC(=O)NC4CCCCC4)n3)cc2)CC1	i
CCOC(=O)c1cc(C)n(CCCN2CCOCC2)c1C	i
Cc1cccc(-c2nnc(SCC(=O)N3c4ccccc4CCc4ccccc43)n2C)c1	i
O=C(Nc1ccc2oc(-c3ccncc3)nc2c1)c1ccccc1F	i
CCOc1ccccc1N1CCN(C(=O)NC(C)c2ccc(F)c(F)c2)CC1 (centres undefined)	i
COc1ccccc1NC(=O)C(C/C=C(\C)Cl)C(C)=O (centres undefined)	i
O=C(CCCN1C(=O)/C(=C\c2cccs2)SC1=S)Nc1ccccn1	i
CCOC(=O)Cc1csc(NC(=O)CSc2nnc(C(C)C)n2C)n1	i
Cn1c(=O)c2nc(-c3ccccc3)c(-c3ccccc3)nc2n(C)c1=O	i
Cc1ccc(C)c(-n2nnnc2SCC(=O)NCCC2=CCCCC2)c1	i
CCC(C)/C(C)=N/NC(=O)CNS(=O)(=O)c1ccc([N+](=O)[O-])cc1 (centres undefined)	i

The list goes on; the last two above are carried over.
SMILES	CHT PAM
Cc1ccc(C)c(-n2nnnc2SCC(=O)NCCC2=CCCCC2)c1	i
CCC(C)/C(C)=N/NC(=O)CNS(=O)(=O)c1ccc([N+](=O)[O-])cc1 (centres undefined)	i
O=C(Cn1nc(-c2ccccc2)ccc1=O)Nc1ccc(NC(=O)c2ccccn2)cc1	i
CC(C)Cc1nc(N2CCCCC2)c(C#N)c2c1CCC2	i
C/C(=N\NC(=O)C(NC(=O)c1ccccc1)C(C)C)c1ccccc1 (centres undefined)	i
Cc1ccc(S(=O)(=O)NCC(C)n2nc(C)nc2C)cc1 (centres undefined)	i
COc1ccc(NS(=O)(=O)c2cccc(NC(=O)C3=NN(c4ccccc4)C(=O)CC3)c2)cc1	i
O=C(OCc1cccs1)c1ccccc1NS(=O)(=O)c1ccc2c(c1)OCCO2	i
CCCCN(CC)Cc1c(O)ccc2c(-c3ccccc3)cc(=O)oc12	i
COc1cc(OC)c(NC(=O)CN(C)S(=O)(=O)c2ccc(-c3ccc(=O)[nH]n3)s2)cc1Cl	i
CN(NS(=O)(=O)c1cccs1)c1ncc(C(F)(F)F)cc1Cl	i
O=C(C1CCN(Cc2cc(Cl)ccc2O)CC1)N1CCN(Cc2ccccc2)CC1	i
NC(=O)c1nsc(C(=O)N(Cc2ccco2)C(C(=O)NCc2ccccc2)c2ccc(O)cc2)c1N (centres undefined)	i
Cc1oc(-c2ccccc2Cl)nc1CS(=O)(=O)CC(=O)NCCc1ccccc1	i
CC1CCCC(NC(=O)CNC(=O)c2cccs2)C1C (centres undefined)	i
Cc1nc2c(C(=O)NCc3cccs3)cnn2c(C)c1Cc1ccccc1	i
CCn1cc(CNC(=O)c2cc(-c3cc(OC)ccc3OC)nc3ccccc23)c(C)n1	i
